LASV entry inh – qHTS for Inhibitors of binding or entry into cells for Lassa Virus; Lassa virus pseudotype entry inhibition, cell reporter; control for the full effect not named in the record; Potency, µM (top dose mostly 37.9 µM), for the others: at the top dose activity change, negative = inhibition, most hits filed as inhibitors; 300,000 tested, 1.2% active; AID 540256, 2011; active means well fitted inhibition curve with a large enough effect; inconclusive means small, poorly fitted or top-dose-only effect, or effect the other way; inactive means flat fitted curve, though single readings scatter; tested in HEK293 cells; also: % is scaled to controls: 0 for no effect and ±100 for the full control effect; nearly all actives have a fitted effect of over 50% in size; luciferase read-out
2A StopGo – High Throughput Screening for Foot and Mouth Disease Virus Antivirals | Potency, µM (top dose mostly 57.9 µM), for inactives: top-dose signal change, negative = less light | 410,000 tested, 1.2% active | human cells with a luciferase reporter of 2A StopGo recoding; control for the full effect not named in the record; active = well fitted falling curve with a large enough effect; inconclusive = small, poorly fitted or top-dose-only effect; inactive = no such curve, though single readings can be large or run the other way; tested in HEK293T cells; also: % is scaled to controls: 0 for no effect and ±100 for the full control effect; nearly all actives have a fitted effect of over 45% in size; luciferase light after 4 h
Cruzain noTriton – qHTS Assay for Promiscuous and Specific Inhibitors of Cruzain (without detergent). Cruzipain (Trypanosoma cruzi), P25779. purified cruzain, Z-FR-AMC fluorescence, no detergent. Potency, µM, for inactives: max response, negative = inhibition, most hits filed as inhibitors. 200,000 tested, 2.3% active. AID 1476, 2009;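 also: plate controls were enzyme without inhibitor for no effect and buffer without enzyme for full effect; nearly all actives have a fitted effect of over 40% in size; top concentration of the series not given in the record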
Target sequence (P25779 123-467 limits assumed): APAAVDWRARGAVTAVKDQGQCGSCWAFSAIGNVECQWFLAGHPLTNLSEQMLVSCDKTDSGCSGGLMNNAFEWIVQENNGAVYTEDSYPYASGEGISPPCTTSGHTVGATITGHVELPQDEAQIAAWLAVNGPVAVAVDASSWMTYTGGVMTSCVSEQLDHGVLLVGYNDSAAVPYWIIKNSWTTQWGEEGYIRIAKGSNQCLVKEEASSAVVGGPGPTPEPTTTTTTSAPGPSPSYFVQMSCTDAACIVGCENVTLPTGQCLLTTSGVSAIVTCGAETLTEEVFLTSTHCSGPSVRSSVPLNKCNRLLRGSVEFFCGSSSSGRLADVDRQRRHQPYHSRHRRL
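Detergent-free condition (0.00005% Triton X-100) in acetate buffer pH 5.5 with DTT. 1.5 nM enzyme and compound were pre-mixed 15 min, then 2 uM Z-FR-AMC substrate added; reaction progress from fluorescence change between first and third reads (60 s).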
NS1 function inh – qHTS Assay for Inhibitors of Influenza NS1 Protein Function | S. cerevisiae slowed by influenza A NS1, growth recovery by OD600 | Potency, µM (highest dose often 46.1 µM), for the others: at the highest dose activity, positive = more growth | 270,000 tested, 0.4% active; active means well fitted rising curve with a large enough effect; inconclusive means small, poorly fitted or top-dose-only effect; inactive means no such curve, though single readings can be large or run the other way; also: nearly all actives have a fitted effect of over 50% in size
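Growth recovery, yeast-based: influenza A NS1 expressed in S. cerevisiae causes slow growth, and suppressors are detected by OD600. The parent strain without NS1 is used as positive control.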
SARS PLP yeast – qHTS of Yeast-based Assay for SARS-CoV PLP; S. cerevisiae expressing SARS-CoV PLpro, growth rescue; control for the full effect not named in the record; Potency, µM (doses to about 32.9 µM), for the others: at the top dose activity, positive = growth rescue; 330,000 tested, 0.19% active; active means well fitted rising curve with a large enough effect; inconclusive means small, poorly fitted or top-dose-only effect; inactive means no such curve, though single readings can be large or run the other way; also: 0% is about no effect; nearly all actives have a fitted effect of over 55% in size; growth read by luminescence after 48 h
Marburg entry inh – qHTS for inhibitors of binding or entry into cells for Marburg Virus. Marburg virus pseudotyped entry inhibition, cell reporter; control for the full effect not named in the record; about a third of the inactives were read at about 46 µM. AID 540276, 2011. 300,000 tested, 1.8% active. Potency, µM (top dose mostly 37.8 µM), inactives show at the top dose activity change, negative = inhibition, hits mostly inhibitors; active = well fitted inhibition curve with a large enough effect; inconclusive = small, poorly fitted or top-dose-only effect, or effect the other way; inactive = flat fitted curve, though single readings scatter; tested in HEK293 cells; about a fifth of its hits are not listed in these tables; also: % is scaled to controls: 0 for no effect and ±100 for the full control effect; luciferase read-out
Cruzain Triton – qHTS Assay for Promiscuous and Specific Inhibitors of Cruzain (with detergent); Cruzipain (Trypanosoma cruzi), P25779; 200,000 tested, 0.43% active; AID 1478, 2009; purified cruzain, Z-FR-AMC fluorescence, 0.01% Triton; Potency, µM, for inactives: max response, negative = inhibition, usual class: inhibitors;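 also: plate controls were neutral wells for no effect and buffer without enzyme for full effect; nearly all actives have a fitted effect of over 40% in size; top concentration of the series not given in the record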
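Cysteine protease activity tested under reducing, mildly acidic conditions (100 mM sodium acetate pH 5.5, 5 mM DTT) plus 0.01% Triton X-100. Cruzain 1.5 nM; substrate Z-FR-AMC 2 uM; 15 min compound preincubation at room temperature.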
RE007 growth inh – qHTS Assay for Inhibitors of the HIV-1 protein Vpr | S. pombe RE007 Vpr strain, BacTiter-Glo ATP luminescence, 24 h; control for the full effect not named in the record | Potency, µM (highest dose often 92.2 µM), for the others: top-dose activity change, negative = less growth | 360,000 tested, 0.21% active; active = well fitted falling curve with a large enough effect; inconclusive = small, poorly fitted or top-dose-only effect; inactive = no such curve, though single readings can be large or run the other way;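 also: % is scaled to controls: 0 for no effect and ±100 for the full control effect; nearly all actives have a fitted effect of over 50% in size; the assay follows cell death caused by Vpr and the record does not say whether a fall means rescue or toxicity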
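Fission yeast RE007 carrying one integrated HIV-1 vpr copy, seeded at OD 0.01 in PMG+AL medium with 23 nL pinned compound. Grown 24 h at 30 degrees; viability read by BacTiter-Glo luminescence after 5 min.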
* hit, by the source's call; ? = inconclusive; · = no result given; & = joins results of further samples; [ ] = dose if it differs, or a comment. Unless noted, calls follow the shape of the dose curve; as a rule, active = well fitted curve in the direction sought with a large enough effect; inconclusive = small, poorly fitted or top-dose-only effect, or another doubt; inactive = no such curve, though single readings can be large; an effect the other way counts as inactive or inconclusive. Potency is read from the fitted curve at half-maximal effect.

Compound	LASV entry inh	2A StopGo	Cruzain noTriton	NS1 function inh	SARS PLP yeast	Marburg entry inh	Cruzain Triton	RE007 growth inh
CCc1ccc(/C=N/NC(=O)c2cc(C3CC3)nc3ccc(Br)cc23)s1	?	0%	25µM*	10%	-3%	?	2.6%	6%
COC1=C(OC)C(=O)C(Sc2ccc3ccccc3c2)=CC1=O	?	0%	·	·	·	?	·	7.1µM*
OCC[C@@H]1C[C@@H](O)[C@H](O)[C@]2(Cc3ccccc3CO2)O1	·	7%	·	-8%	-7%	·	·	4%
COC(=O)NCC(c1cccnc1)N1CCOCC1 (stereo not given)	·	-29%	1%	-53%	3%	·	-2.8%	5%
COc1ccc(CNc2nc3c(c(=O)n(Cc4ccc(Cl)cc4)c(=O)n3C)n2C)cc1	?	13µM*	0%	10%	4%	?	3.4%	2%
CCOc1ccccc1C(C(=O)NC1CCCC1)N(Cc1ccco1)C(=O)CNC(=O)c1ccco1 (stereo not given)	4%	2%	17%	-11%	8%	11%	3.3%	10%
NC(=S)n1[nH]c(-c2ccccc2)c(N=Nc2ccccc2C(=O)N2CCOCC2)c1=O	16%	-23%	·	4%	1%	24%[46.1 µM]	·	0%
CCCC[n+]1ccn(C2=C([O-])c3ccccc3C(=O)/C2=N\S(=O)(=O)c2ccc(Br)cc2)c1	?	-23%	13%	14%	13%	?	-5.6%	-4%
CC1=C(CC(=O)c2ccccc2)C(=O)c2ccccc2C1=O	-14%	?	-1%	-15%	-8%	?	-1.3%	-30%
Cc1cccc(CN2CCN(CC(C)C)C(CCO)C2)n1 (stereo not given)	·	-2%	·	5%	1%	3%	·	0%

Compound	LASV entry inh	2A StopGo	Cruzain noTriton	NS1 function inh	SARS PLP yeast	Marburg entry inh	Cruzain Triton	RE007 growth inh
CCN1CCN(CC(O)COC(C)C)CC1 (stereo not given)	?	12%	1%	-5%	3%	?	-1.0%	4%
CCOCCCNC(=O)c1ccccc1NC(=O)C1=C(C)OCCS1	·	-10%	·	-2%	1%	·	·	6%
O=C1CCN(S(=O)(=O)c2ccccc2)CCN1CCOCc1ccccc1	·	-18%	·	8%	4%	·	·	-12%
O=C(NNS(=O)(=O)c1ccc(F)cc1)C1CCN(S(=O)(=O)c2ccccc2)CC1	13%	-16%	·	-4%	-1%	?	·	2%
N#CC(C(=O)NC1CC1)c1nc2ccccc2nc1N1CCCC1 (stereo not given)	0%	0%	0%	-11%	-3%	-17%[46.1 µM]	-6.1%	-3%
COC(=O)c1ccc(NC(=O)N2CCc3c([nH]c4ccccc34)C2c2ccc(C)cc2)cc1 (stereo not given)	?	-21%	-4%	·	·	?	1.7%	·
O=C(N/N=C\c1ccc(Cl)cc1)C1=NOC2COC3(CCN(c4ccc([N+](=O)[O-])cc4)CC3)OCC12 (stereo not given)	·	?	·	-2%	-4%	·	·	-1%
CCOCCCNC(=O)C(NC(=O)c1ccc(=O)[nH]c1)c1ccc(C)cc1 (stereo not given)	·	-24%	3%	-3%	0%	·	4.1%	-4%
Cc1ccc2cc(CN(C(=O)c3cccc(Cl)c3)c3ccccc3)c(=O)[nH]c2c1	?	?	17%	·	·	3%[46.1 µM]	-3.8%	·
O=C1N(c2ccccc2)C[C@@H]2C[C@@H](c3cc4ccccc4o3)N3CCC[C@@]123	?	-29%	·	1%	0%	?	·	14%

Retrieved by structure from the entries so far:
Compound	LASV entry inh	2A StopGo	Cruzain noTriton	NS1 function inh	SARS PLP yeast	Marburg entry inh	Cruzain Triton	RE007 growth inh
CCOCCCNC(=O)C(NC(=O)c1ccc(=O)[nH]c1)c1ccc(C)cc1 (stereo not given)	·	-24%	3%	-3%	0%	·	4.1%	-4%
O=C(NNS(=O)(=O)c1ccc(F)cc1)C1CCN(S(=O)(=O)c2ccccc2)CC1	13%	-16%	·	-4%	-1%	?	·	2%
CCOCCCNC(=O)c1ccccc1NC(=O)C1=C(C)OCCS1	·	-10%	·	-2%	1%	·	·	6%

The results go on.
Compound	LASV entry inh	2A StopGo	Cruzain noTriton	NS1 function inh	SARS PLP yeast	Marburg entry inh	Cruzain Triton	RE007 growth inh
O=c1oc2ccccc2nc1/C=C(\O)c1ccc(Br)cc1	·	-15%	·	-90%	-6%	·	·	?
COc1ccc(Nc2nc(N3CCOCC3)nc(N3CCOCC3)n2)c(OC)c1	·	-15%	·	14%	5%	·	·	-4%
CCCc1cc(=O)n2c(C(=O)Nc3ccc(OCC)cc3)c(C(=O)Nc3ccc(C)cc3)sc2n1	?	-18%	-6%	·	·	17%[46.1 µM]	-2.7%	·
O=[N+]([O-])c1cc(S(=O)(=O)N2CCCC2)ccc1OCc1ccccc1	18%	-10%	·	-7%	-3%	-4%[46.1 µM]	·	-10%
C=CCN1C(=O)CSc2ccc(C(=O)NCc3ccco3)cc21	-17%	-14%	2%	8%	0%	-3%	-2.2%	-13%
Cc1nn(CC(=O)N2CCC(C)CC2)c(=O)c2cccn12	·	0%	·	10%	1%	·	·	21%
COc1ccc(C2C(C#N)=C(N)N(c3ccccc3)C3=C2C(=O)CCC3)cc1Cn1cc([N+](=O)[O-])cn1 (stereo not given)	?	-14%	20µM*	23%	-20%	?	-0.8%	-8%
COc1ccc(C2N(c3ccccc3)CCN2c2ccccc2)cc1O	-5%	-1%	·	-6%	-2%	20%[46.1 µM]	·	-11%
COc1ccc(N2CCN(S(=O)(=O)c3c(C)noc3/C=C/N(C)C)CC2)cc1	·	-1%	·	3%	10%	·	·	-2%
Cc1ccc(NC(=O)c2ccc(Cn3cc([N+](=O)[O-])cn3)cc2)c(C)c1	-2%	-19%	6%	-2%	5%	-7%	-0.4%	6%

Order of results – LASV entry inh	2A StopGo	Cruzain noTriton	NS1 function inh	SARS PLP yeast	Marburg entry inh	Cruzain Triton	RE007 growth inh
> CC(=O)N1N=C(c2ccncc2)OC1(Cc1ccccc1)Cc1ccccc1
 : ·	?	·	-13%	0%	·	·	8%
> Cc1cc(C(=O)CSc2nn3c(=O)c(C(C)(C)C)nnc3s2)c(C)n1-c1ccc(F)cc1
 : -6%	-16%	13µM*	27%	-4%	-15%	1.6%	-12%
> CC(=O)N1CCc2cc(Br)cc(S(=O)(=O)N3CCC(C(=O)N(C)c4cc(C)ccc4C)CC3)c21
 : 22%[46.1 µM]	2%	-4%	·	·	2%[46.1 µM]	0.3%	·
> CC1CN(C(=O)CSc2nnc3c(Cl)cc(Cl)cn23)CC(C)O1 (stereo not given)
 : 3%	-3%	5%	0%	1%	?	3.1%	31%
> CCN(C(=O)c1cc2c(=O)n3ccccc3nc2s1)C1CCCCC1
 : 9%	41%[activator]	·	-32%	-3%	?	·	14%
> CC1(CO)COC(c2ccccc2)=N1 (stereo not given)
 : ·	-2%	·	-5%	-1%	·	·	3%
> CCOC(=O)c1cc(NC(=O)c2ccc(C)cc2)c(=O)oc1-c1ccccc1
 : -12%	12%	5%	5%	-1%	0%	-7.5%	-14%
> CCC(C(=O)Nc1cccc(C(F)(F)F)c1)c1ccccc1 (stereo not given)
 : -11%	?	-3%	-68%	-21%	?	-3.4%	4%
> COc1ccc(S(=O)(=O)Nc2ccccc2C(=O)N2CCCCC2)cc1C
 : -28%[46.1 µM]	34%[activator]	·	-15%	3%	?	·	12%
> COc1ccccc1NC(=O)COC(=O)c1oc2ccccc2c1C
 : 1%[46.1 µM]	-7%	·	1%	0%	?	·	8%
> CC1CC(C)CN(C(=O)C2CCN(S(=O)(=O)N3CCC4(CC3)OCCO4)CC2)C1 (stereo not given)
 : ·	-6%	·	-11%	3%	·	·	-12%
> CCn1c(-c2ccccc2Cl)nn(CC(=O)Nc2cc(Cl)ccc2Cl)c1=S
 : ?	?	0%	4%	5%	?	-2.4%	-30%
> Cc1ccc([N+](=O)[O-])cc1
 : ·	0%	-10%	·	0%	·	4.1%	-1%
> Cc1c(O)ccc2cc(S(=O)(=O)c3ccccc3)c(=O)oc12
 : 2%	-5%	·	1%	-1%	4%[46.1 µM]	·	25%
> COc1cc2c(cc1OC)CN(c1ccc([N+](=O)[O-])c(C(F)(F)F)c1)CC2
 : -18%	0%	18%	-12%	-11%	-16%	-7.8%	-18%
> CCOC(=O)c1c(NC(=O)CN2C(=O)NC3(CCCCCC3)C2=O)sc(C)c1-c1ccc(C)cc1
 : ?	0%	?	-8%	-9%	-3%	-4.4%	-18%
> O=C(CN1CCN(c2ccccc2O)CC1)NC(=O)NCc1ccco1
 : -31%	-17%	1%	1%	14%	?	-0.4%	-16%
> Cc1cc(=O)n2nc(N3CCC(C(=O)NCc4ccccc4Cl)CC3)sc2n1
 : -9%[46.1 µM]	0%&-2%	-19%	8%	0%	28%&28%[46.1 µM]	-17%	-1%
> COC(=O)N(c1ccccc1)P(=O)(Oc1ccccc1)Oc1ccccc1
 : -8%	24%	·	-5%	-1%	1%	·	11%
> CC(C)NS(=O)(=O)c1ccc(CCC(=O)NCc2cccnc2)cc1
 : 17%	20%	-4%	2%	2%	-10%	2.1%	4%
> COc1ccc2[nH]c(=O)c(COC(=O)c3cccs3)cc2c1
 : ?	-7%	-5%	15%	-8%	-3%	-4.2%	14%
> Cc1ccc2[nH]c3c(=O)n(CC(=O)Nc4ccccc4N4CCN(C)CC4)ncc3c2c1
 : ·	-14%	·	8%	1%	·	·	-2%
> CC1CCC2(CC1)NC(=O)N(Cc1cc(=O)n3ccsc3n1)C2=O (stereo not given)
 : 6%	-2%	·	0%	0%	8%[46.1 µM]	·	1%

Screens as filed in PubChem.
